CDC25B CDK2 inh = human CDC25B-CDK2/CyclinA binding inhibition; P30305+P24941; HTRF CDC25B-CDK2/CyclinA binding, anti-His/anti-Flag; active compounds read high; z-score (no concentration beside the values); 0.72% of 94,000 active;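 also: score is relative to mean and SD of negative controls; strong numbers were not always called active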
HIV TAR-Tat = HIV-1 TAR-Tat binding disruption | HIV-1 TAR RNA, Tat peptide displacement FRET; active compounds read high | z-score (no concentration beside the values) | 0.6% of 100,000 active | AID 1259389;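 also: score is relative to mean and SD of negative controls; some compounds called inactive have numbers as strong as hits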
Active calls of the source: *; · = not tested or not shown.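 The calls were made as follows: active = z-score from 3 up in half or more of its runs; inactive = the rest.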

SMILES	CDC25B CDK2 inh	HIV TAR-Tat
CC1C(=O)Nc2ccc(S(=O)(=O)N3CCCc4ccccc43)cc2NC1=O (configuration not stated)	-1.2	-2.5
CSc1cccc(NC(=O)N2CCN(S(=O)(=O)c3ccc4c(ccn4C)c3)CC2)c1	·	0.66
CCOC(=O)C1CCN(S(=O)(=O)c2cc3[nH]c4c(c3cc2CC)C(=O)CCC4)CC1	·	-0.49
Cc1cc(C)cc(-n2cc[nH]c(=S)c2=O)c1	-2	0.18
Cc1nc([N+](=O)[O-])cn1CCCCN1C(=O)c2ccccc2C1=O	0.38	·
Cc1ccc(Nc2nc3ccccc3n3nnnc23)c(Cl)c1	1.3	-0.03
Cc1nnc(NCc2cccnc2)c2c1nnn2Cc1ccc(F)cc1	0.33	-1.9
O=C(Nc1cccc(Cl)c1)Nc1c[nH]c(=O)[nH]c1=O	-2.8	1.9
COCC(C)NC(=O)COCc1cc(-c2ccc3c(c2)OCO3)on1 (configuration not stated)	·	-1.9
Cc1cc(C)cc(NC(=O)N2CC(C)Oc3ccc(C)cc32)c1 (configuration not stated)	·	2.9
COC(=O)c1cc(-c2ccc(S(=O)(=O)NC(C)C)s2)on1	·	-0.6
CN(C1CCCCC1)S(=O)(=O)c1ccc(CN2C(=O)c3cccnc3C2=O)cc1	·	1
COc1ccc2c(=O)c(-c3ccc(OC)c(OC)c3)c(C(F)(F)F)oc2c1	-0.17	2.2
O=C(c1cccc2ccccc12)N1CCC(c2nc3ccccc3o2)CC1	0.28	1.3
Cn1c(=O)n(CC(=O)N2CCN(c3nnc(-c4ccccc4)c4ccccc34)CC2)c2ccccc21	1.4	1.2
Cc1noc(C)c1S(=O)(=O)NC1Cc2ccccc2C1	-2.2	·
O=C(NC1CCCCC1)c1nnsc1NC(=O)N1CCCCC1	·	0.94
O=C(C1CCN(S(=O)(=O)N2CCCC2)CC1)N1CCN(Cc2noc3ccccc23)CC1	·	1.3
O=C(COCc1cc(-c2ccc3c(c2)OCO3)on1)Nc1c(F)cc(F)cc1Br	·	0.51
CN(C)NC(=O)C(F)(F)C(F)(F)C(F)(F)F	-0.27	·
COC(=O)c1cc(NC2=NS(=O)(=O)C(c3ccc(C)cc3)=C2C)cc(C(=O)OC)c1	-0.09	-1.6
O=C(c1cc(-c2ccncc2)n[nH]1)N1CCN(C2CCCCC2)CC1	·	1.8
Cc1c(C(=O)N2CCCC2)c(S(=O)(=O)Nc2ccc3c(c2)OCO3)c(C)n1C	·	1.4
COc1ccccc1OCCSc1nc(-c2ccc(F)cc2)nc2cc(=O)[nH]n12	·	-0.16
N#Cc1nc(/C=C/c2ccc(F)cc2)oc1N1CCN(c2ccccc2)CC1	-1.1	0.19

Further entries follow.
SMILES	CDC25B CDK2 inh	HIV TAR-Tat
Cn1cc(NC(=O)NCCN(Cc2ccco2)C2CCCC2)c2ccccc2c1=O	2.5	-0.74
COc1cc(Nc2ncnc3onc(-c4ccc(F)cc4)c23)cc(OC)c1	·	-0.34
CCCNC(=O)c1ccc2c(=O)[nH]c3c(C(=O)NC(C)C)sc(=S)n3c2c1	·	3.9
O=C(NCc1cccc(F)c1)NC1COc2ccccc2C1 (configuration not stated)	·	0.68
CCC(C)NS(=O)(=O)c1ccc(N2CCCCS2(=O)=O)cc1 (configuration not stated)	·	2
O=C(c1ccc(CS(=O)Cc2ccc(Cl)cc2)o1)N1CCN(C2CCCCC2)CC1 (configuration not stated)	·	1.3
CC1C=CCC2C(=O)N(c3cccc(Cl)c3)C(=O)C12 (configuration not stated)	-1	·
O=C1C=CC(=O)N1c1cc(F)c(Br)cc1F	-0.9	·
O=C(Cc1scnc1-c1cccs1)N1CCN(c2cccc(Cl)c2)CC1	-2.2	-0.23
Cn1c(=O)c(=O)n(C)c2cc3c(cc21)nc(C(F)(F)F)n3Cc1ccccc1	-0.32	0.97
COc1ccc(-c2nnc3c4cc(OC)c(OC)cc4n(Cc4ccccc4)cc2-3)cc1	-1.5	-2.7
CN1CCN(C(=O)COc2ccc(Cl)cc2)c2cccnc21	·	0.72
CCOC(=O)N1CCC(Nc2c(N3c4ccccc4CC3C)c(=O)c2=O)CC1 (configuration not stated)	-2.2	-1.3
Cc1ccc(C2C3=C(CCCC3=O)Nc3[nH]n(-c4ccccc4)c(=O)c32)cc1 (configuration not stated)	-6.8	-0.19
CC(=O)N1CCC2(CC1)OC(=O)C(C)=C2C(=O)NCCN1CCOCC1	·	0.55
Cc1cc(NC(=O)c2cc3c(s2)-c2ccc(Cl)cc2SC3)no1	0.87	1.2
COc1ccc(-c2c3c([nH]c(=S)c2C#N)CCC3)cc1	0.41	-0.58
COc1cc(OC)c(Nc2c3c(nc4ncnn24)CCC3)cc1Cl	·	0.86
O=S(=O)(NCCc1csc2nc(-c3cccs3)nn12)c1cccc(F)c1	·	-0.79
CC1(C)C(=O)OC(C#Cc2ccccc2)C(C)(C)C1=O (configuration not stated)	1.3	·
O=C(Sc1ccccc1)c1ccc2ncsc2c1	-0.58	·
Cn1c(-c2nnc(SCC(=O)Nc3ccccc3F)o2)cc2ccccc21	-1.8	1.5
CCc1cccc(CC)c1NS(=O)(=O)c1cccc2cccnc12	-0.4	·
COc1cccc(NS(=O)(=O)c2ccc3c4c2CC(=O)N4CC(C)S3)c1 (configuration not stated)	·	-0.24
Cc1onc(-c2c(F)cccc2Cl)c1C(=O)Oc1ccccc1	-2.2	·

Continued.
SMILES	CDC25B CDK2 inh	HIV TAR-Tat
CCOc1ccccc1-c1nc(-c2ccc(C)nc2OC)no1	-2.2	-0.63
O=C(c1sc2ncccc2c1-n1cccc1)N1CCOCC1	·	0.51
Brc1ccc(OCc2nn3c(Cc4ccccc4)nnc3s2)cc1	0.11	1.1
NS(=O)(=O)c1cc2c(cc1Cl)NC(CSCc1ccccc1)=NS2(=O)=O	·	1.3
Cc1c(C(=O)COC(=O)c2ccc(Cl)cc2Cl)sc2ccc(Cl)cc12	-1.8	·
COc1ccc(OC)c(NC(=O)N2CCC3(CC2)Nc2cccnc2NC3=NC2CCCCC2)c1	·	0.54
CSC1=N/C(=C\c2c(C)nn(-c3ccccc3)c2Cl)C(=O)S1	-0.79	0.95
CC(C)(C)c1ccc(OCc2cc(=O)n3ccsc3n2)cc1	-2.2	0.93
COc1ccc(N2CCN(S(=O)(=O)c3ccc4c(c3)NC(=O)CS4)CC2)cc1	·	1.6
O=c1c2ccccc2nc(-c2ccco2)n1Cc1ccccc1	0.53	·
Cc1cc(=O)nc2c3ccccc3n(C(C)C(=O)N3CCCCCC3)n12 (configuration not stated)	-1.7	·
Cc1ccc2cc3cc(C(=O)N4CCCC4)sc3nc2c1	-0.41	0.96
NC(=O)c1c(NC(=O)CN2CCCCC2)sc2c1CCCC2	-2.4	2.7
O=C1CCSc2ccc(S(=O)(=O)NCCSCc3ccco3)cc2N1	·	0.97
COC(=O)c1sccc1S(=O)(=O)N1CCN(Cc2ccc3c(c2)OCO3)CC1	·	1.5
Cc1ccc(-c2noc(-c3ccccc3)n2)cc1	-0.11	·
Cc1cc2c(cc(C(=O)NCc3cccs3)n2C)s1	0.65	-0.4
CCC1Sc2ccc(S(=O)(=O)Nc3ccc(Cl)cc3C)cc2NC1=O (configuration not stated)	·	0.46
Cc1cccc(-n2nnc(-c3nc(-c4ccc(F)cc4)no3)c2N)c1C	·	-1.1
Brc1ccc(-c2cn3cc(Cc4ccccc4)sc3n2)cc1	-1.1	0.47
CC1CSc2ccc(S(=O)(=O)N(C)Cc3ccco3)cc2NC1=O (configuration not stated)	·	-1.4
CCOc1cc(C2C(C(=O)OC(C)C)=C(C)NC3=C2C(=O)CCC3)ccc1O (configuration not stated)	-2	0.41
Cc1cccc(-c2noc(CN(C(C)C)S(=O)(=O)c3ccc(F)cc3)n2)c1	-1.5	2.4
CCOC(=O)c1c[nH]c2ccc(OCC)cc2c1=O	-1.4	·
CCOC(=O)N1CCN(C(=O)c2c(C)oc3ncnc(N4CCCCC4)c23)CC1	-0.5	0.34

Five of these compounds, set out differently:
compound | CDC25B CDK2 inh | HIV TAR-Tat
CCC1Sc2ccc(S(=O)(=O)Nc3ccc(Cl)cc3C)cc2NC1=O (configuration not stated) | · | 0.46
Cc1cccc(-n2nnc(-c3nc(-c4ccc(F)cc4)no3)c2N)c1C | · | -1.1
Brc1ccc(-c2cn3cc(Cc4ccccc4)sc3n2)cc1 | -1.1 | 0.47
CC1CSc2ccc(S(=O)(=O)N(C)Cc3ccco3)cc2NC1=O (configuration not stated) | · | -1.4
CCOc1cc(C2C(C(=O)OC(C)C)=C(C)NC3=C2C(=O)CCC3)ccc1O (configuration not stated) | -2 | 0.41

The listing continues.
SMILES	CDC25B CDK2 inh	HIV TAR-Tat
Cc1cc(C)nc(NC2=NCC(=O)N2c2ccccc2C)n1	-1.6	·
O=C(O)c1ccc2c(c1)C1C3CCC(C3)C1C(c1ccccc1F)N2 (configuration not stated)	-2.1	·
Clc1ccc(-n2cc(-c3ccccc3)c3c(NCc4ccccn4)ncnc32)cc1	·	3.9
CCc1nnc(SCC(=O)Nc2cc(C)cc(C)c2)c2cc3occc3n12	·	0.24
CC1CCCN(c2nc(N)c([N+](=O)[O-])c(Nc3ccccc3)n2)C1 (configuration not stated)	·	1.6
CCOc1ccc2[nH]cc(S(=O)(=O)c3ccc(F)cc3)c(=O)c2c1	-1.8	-0.85
O=C(CSc1nnc(-c2cc3ccccc3[nH]2)o1)Nc1cccc(F)c1	-0.34	0.68
O=C(CSC1=NS(=O)(=O)c2ccccc2N1)Nc1ccc2c(c1)OCO2	·	1.5
Cc1cc2n(n1)C(c1ccccc1)CC(c1ccccc1)=N2 (configuration not stated)	1	·
N#C/C(=N\Nc1cccc(C(F)(F)F)c1)C(=O)c1csc(-c2cccnc2)n1	-2.1	·
Cc1cc(NC(=O)NCc2sccc2C)c(C(F)(F)F)o1	-1.2	·
COc1ccc(N2CCCS2(=O)=O)cc1NS(=O)(=O)c1ccc(F)cc1	·	0.49
O=C1C(=O)N(c2ccccc2)C(c2ccccc2)/C1=C(/O)c1ccc(Br)cc1 (configuration not stated)	-0.39	-0.04
Cc1nc([N+](=O)[O-])cn1CC/C(N)=N/O	-1.8	·
COc1cc(C2NC(=O)NC(O)(C(F)(F)F)C2C(=O)c2ccc(Cl)cc2)ccc1O (configuration not stated)	-0.11	·
O=C(Nc1cccc(C(F)(F)F)c1)Nc1ccc2nonc2c1	-2.2	·
O=C(CSc1nnc2c3c4c(sc3ncn12)CCCC4)Nc1ccc(F)c(Cl)c1	-0.46	0.36
Cc1nn2c(CN(C(=O)c3cccs3)c3ccccc3)nnc2c2ccccc12	-1.8	-0.64
CC1c2cccn2CCN1C(=O)Nc1ccc(F)c(Cl)c1 (configuration not stated)	·	-6
Cc1nnc(N2C(=O)c3oc4ccccc4c(=O)c3C2c2cccs2)s1 (configuration not stated)	0.41	0.69
C/C(=C\c1ccc(C(=O)O)cc1)c1ccc2c(c1)C(C)(C)CCC2(C)C	-1.1	·
N#CC1(NC2CCCCC2)CCCCC1	-0.48	·
COc1ccc(OC)c(-c2noc(N(C)Cc3ccccc3)n2)c1	·	-0.21
COc1ccc(-c2nc3n(c(=O)c2C#N)CCS3)cc1OC	0.57	0.24
O=C1CN(Cc2ccc(F)cc2)S(=O)(=O)c2ccccc2N1Cc1cccc(F)c1	·	1.8

Full records, quoted from the list. Order of screens: CDC25B CDK2 inh | HIV TAR-Tat
COc1ccc(OC)c(-c2noc(N(C)Cc3ccccc3)n2)c1 as listed: · | -0.21
O=C(CSc1nnc(-c2cc3ccccc3[nH]2)o1)Nc1cccc(F)c1 as listed: -0.34 | 0.68
O=C1CN(Cc2ccc(F)cc2)S(=O)(=O)c2ccccc2N1Cc1cccc(F)c1 as listed: · | 1.8
O=C(CSC1=NS(=O)(=O)c2ccccc2N1)Nc1ccc2c(c1)OCO2 as listed: · | 1.5
Cc1nnc(N2C(=O)c3oc4ccccc4c(=O)c3C2c2cccs2)s1 (configuration not stated) as listed: 0.41 | 0.69

New compounds follow
SMILES	CDC25B CDK2 inh	HIV TAR-Tat
CCN(CC)CCNC(=O)C1CCCN1c1nnc(N2CCCC2=O)s1 (configuration not stated)	-1.5	0.32
O=c1[nH]c2ccc(S(=O)(=O)NCCc3ccccc3)cc2[nH]1	0.25	0.33
Cc1ccc(-c2cc(C(F)F)n3ncc(C(=O)NC4CC4)c3n2)cc1	-0.65	1.1
CN1CCN(S(=O)(=O)c2cc(Br)cc3c2N(C(=O)C2CC2)CC3)CC1	-1.1	·
O=C(c1ccc(Cl)cc1)N1CCN(c2ccc([N+](=O)[O-])c3ncccc23)CC1	-0.56	·
Cc1ccc(C)c(N2CCN(S(=O)(=O)c3cccc4nonc34)CC2)c1	·	1.6
Cc1ccc(C)c(NC(=O)C2Sc3nnc(C)n3NC2c2ccc(Cl)cc2)c1 (configuration not stated)	-0.75	0.37
CC(C)N(Cc1cccs1)C(=O)[C@H]1[C@@H]2C[C@@H]3[C@H]1C(=O)O[C@@H]3C2	-0.2	1.4
O=C(c1sc2ccccc2c1Cl)N1CCC(c2nc3ccccc3o2)CC1	-0.9	2.1
CN1CCN(CCNC(=O)CCc2nnc3ccc(N4CCCCC4)nn23)CC1	·	0.06
N#Cc1nnn(-c2cc(C(F)(F)F)cc(C(F)(F)F)c2)c1N	-0.93	·
C1=CC2c3cc(-c4ccccc4)ccc3NC(c3ccncc3)C2C1 (configuration not stated)	0.25	-1.9
Cn1c(SCc2ccc(F)cc2)nnc1-c1cc2ccccc2o1	·	0.09
COC(=O)c1c(NC2=NS(=O)(=O)c3ccccc32)sc2c1CCCC2	-1.8	-1.1
Cc1ccc(C)c2c(=O)cc(CSc3nnc(C)n3C)[nH]c12	·	-3.3
O=c1c(-c2ccccc2)c(N2CCN(c3ccccc3)CC2)c1=O	·	1.7
COc1ccc(OC)c(Nc2cc(C)nc3c(C)c(C)ccc23)c1	-2.2	·

From PubChem BioAssay
